VDR inhibitor – inhibitors of human vitamin D receptor. P11473. 400,000 tested, 0.93% active. Potency, µM, inactives show max response, negative = inhibition, usual class: inhibitors. VDR-SRC2-3 peptide fluorescence polarization, 2 h; active = well fitted inhibition curve with a large enough effect; inconclusive = small, poorly fitted or top-dose-only effect, or another doubt; inactive = no such curve, though single readings can be large or run the other way; also: series mostly up to about 120 µM
Target sequence (P11473 whole entry, looked up): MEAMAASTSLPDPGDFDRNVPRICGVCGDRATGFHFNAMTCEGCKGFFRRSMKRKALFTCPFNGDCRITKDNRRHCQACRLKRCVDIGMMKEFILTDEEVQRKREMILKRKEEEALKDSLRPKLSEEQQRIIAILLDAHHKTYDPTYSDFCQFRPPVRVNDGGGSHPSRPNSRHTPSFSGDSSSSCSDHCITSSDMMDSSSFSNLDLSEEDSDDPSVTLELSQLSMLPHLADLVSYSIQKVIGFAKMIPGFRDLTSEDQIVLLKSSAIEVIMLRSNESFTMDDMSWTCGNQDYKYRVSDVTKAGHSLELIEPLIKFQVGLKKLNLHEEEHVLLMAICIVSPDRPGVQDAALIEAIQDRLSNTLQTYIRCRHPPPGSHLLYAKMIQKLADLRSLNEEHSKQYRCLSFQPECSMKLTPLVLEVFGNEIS
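Compounds are added to VDR with labelled SRC2-3 coactivator peptide and held 2 h at room temperature. Inhibition of the VDR–peptide interaction is then read as a change in fluorescence polarization.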
* hit, by the source's call; ? = inconclusive; & = joins results of further samples; [ ] = remark or other dose. % is scaled to controls: 0 for no effect and ±100 for the full control effect; potency is read from the fitted curve at half-maximal effect.

VDR inhibitor | mol
-13% | O=C(COC(=O)c1ccc(S(=O)(=O)N2CCc3ccccc3C2)cc1)NC(=O)NCc1ccco1
0% | CCCCOc1cccc(C(=O)N(Cc2ccco2)C2CCS(=O)(=O)C2)c1 (stereo not given)
-11% | O=C(NCc1cccc(CNC(=O)c2ccco2)c1)c1ccco1
0% | CC(C)NC(=O)Nc1ccc2c(c1)C(=O)N([C@H](C)CO)C[C@H](C)[C@@H](CN(C)S(=O)(=O)c1cccs1)O2
-17% | CC1CCCN(C(C(=O)Nc2ccc(C(C)C)cc2)c2ccc3c(c2)OCO3)C1 (stereo not given)
-13% | CC(C)CNCC1OCc2ccccc2CO1
50µM* | CCCCN1C(=O)C(=Nc2cccc3cnccc23)c2ccccc21
8% | Cc1nn(-c2cc(N3CCOCC3)ccc2[N+](=O)[O-])c(=O)c2ccccc12
-3% | COC(=O)c1ccc(Cn2nc(C(F)(F)F)cc2C)cc1
-17% | COc1ccc(NC2CCCN(C(=O)c3cccc(C(F)(F)F)c3)C2)cc1OC (stereo not given)
17% | COC(=O)C1CC(=O)N(c2ccc(C)cc2)C1 (stereo not given)
5% | CC1=C(c2ccc(C(C)C)cc2)S(=O)(=O)N=C1N1CCC(C(=O)NCCc2ccco2)CC1
0% | CC1CN(C(=O)c2ccc(NS(=O)(=O)c3ccc(C(C)(C)C)cc3)cc2)CC(C)O1 (stereo not given)
15% | Cc1cc(C)n(-c2ccc(C(=O)Nc3nc4ccccc4s3)cc2)n1
-15% | CCCOc1ccc(-c2nc(SCc3ccccc3)[nH]c(=O)c2C#N)cc1OC
-20% | CCN(CC)C(=O)c1cc(-c2ccc(Cl)cc2)on1
-14% | Cc1cccc2cc(CN(Cc3ccco3)S(=O)(=O)c3ccc4c(c3)OCCO4)c(=O)[nH]c12
-11% | Cc1ccc(C(=O)Nn2c(C)nc3ccccc3c2=O)cc1C
-10% | COc1ccc(-c2[nH]ncc2C(=O)NCc2ccccc2OC)cc1
? | COc1ccc(-n2nc(C#N)c(Cl)cc2=O)cc1
2% | Cc1ccc(Sc2ncccc2O)cc1
4% | Cc1c(/C=N/NC(=O)c2cc(C(C)(C)C)[nH]n2)c2ccccc2n1C
-6% | O=C(Nc1cccc(-c2nc3ccccc3s2)c1)c1cc(-n2cnnc2)ccc1Cl
? | Cc1cc(C)cc(C(=O)NCc2ccc3c(c2)OCO3)c1
-26% | O=C(O)/C=C/C(=O)Nc1nc(-c2ccc3ccccc3c2)cs1
-27% | NNC(=O)/C(=N/Nc1ccccc1)S(=O)(=O)c1ccc(Cl)cc1
1% | Cc1ccc(NC(=O)c2cnccn2)c(C)c1
-3% | COc1ccc(N2Cc3ccccc3C2=NC(=O)c2ccc(C)cc2)cc1OC
-7% | CCCCCCCCCCCCC/C=C/[C@@H](O)[C@H](CO)NC(=O)CCCCC
-1% | CCN1CCN(C(=O)C2c3cc(OC)c(OC)cc3C(=O)N3CCc4ccccc4C23)CC1 (stereo not given)

Remaining list, next part.
VDR inhibitor | mol
-12% | Cc1cccc(OCC(=O)NCC(=O)N/N=C/c2cc(Br)ccc2OCc2ccccc2)c1
-8% | COCCNC(=O)Cn1cc(/C=C(\C#N)C(=O)NC2CC2)c2ccccc21
56%[activator] | Cc1cc(-c2csc(N)n2)c(C)n1CCC(C)C
-10% | COC(=O)c1cc(Br)c(=O)n(-c2ccccc2OC)c1
-8% | CCn1c(C)c(C(=O)O)c2cc(OC)c3ccccc3c21
14% | COC(C(=O)Nc1ccc(S(=O)(=O)Nc2ccc(F)cc2)cc1)c1ccccc1 (stereo not given)
-3% | COC(=O)CSc1nc2ccccc2nc1SCC(=O)OC
-8% | CNCC(=O)N(CC(C)C)c1c(N)n(CC(C)C)c(=O)[nH]c1=O
-8% | Cc1cccc(Nc2nc(C)cc(C)n2)c1
7% | CCOC(=O)N/N=C/c1cccnc1
-7% | CCOc1ccccc1N1CCN(C(=O)CC(C)C)CC1
-11% | COc1ccc(CCNC(=O)CSc2ccc3nnc(CCNC(=O)c4ccccc4)n3n2)cc1OC
13% | CC(=O)NN1C(=O)c2ccccc2NC1c1ccc([N+](=O)[O-])o1 (stereo not given)
? | O=[N+]([O-])c1ccc(-n2cccn2)c(-c2nn[nH]n2)c1
-10% | COc1ccc(S(=O)(=O)N(C)CC(=O)NCc2cccnc2)cc1OC
14% | Cc1cc(C(F)(F)F)nn1CC(=O)N1CCCCC1C (stereo not given)
-10% | COc1cccc(NC(=S)N(CCC(C)C)C2CCN(C(C)=O)CC2)c1
-1% | CN(CCc1ccccn1)C(=O)c1ccc(OC2CCN(CCc3ccccc3)CC2)cc1
-14% | C=CCN=C1S/C(=C\c2ccc(Cl)cc2)C(=O)N1CC=C
-5% | O=C(N/N=C/c1ccccc1C(F)(F)F)c1ccc2nc[nH]c2c1
-1% | C/C(=C\c1ccccc1)C(=O)NCc1ccco1
? | CCOC(=O)c1c(SCCN2CCCCC2)n(-c2ccccc2)c(=S)n(-c2ccccc2)c1=O
-2% | CCCN(CC1CC1)C(=S)Nc1ccc(C(C)=O)cc1
4% | Cc1ccccc1Cn1cccc1/C=C1/C(=N)N2C=CSC2=NC1=O
2% | O=C(Nc1cccc2[nH]ncc12)c1ccc(F)cc1
8% | COCCN1CC(=O)N(c2cccc(C)c2C)C(c2ccc(Cl)cc2)C1=O (stereo not given)
-3% | Cc1ccc(-n2ncc(C(=O)NCCCN3CCCCC3)c2C2CCN(C(=O)OC(C)(C)C)CC2)cc1
-8% | CCOc1cc(/C=N/Nc2nc(-c3cccc(S(=O)(=O)N4CCCC4)c3)cs2)ccc1O
19% | NS(=O)(=O)c1ccc(CCNC(=O)c2ccc3nc(Cc4ccccc4)oc3c2)cc1
-5% | CCC(SC1=N/C(=C/c2ccccc2OC)C(=O)N1c1ccccc1)C(=O)Nc1cc(C)on1 (stereo not given)

(cont.)
VDR inhibitor | mol
-2% | COc1ccccc1NC(=O)C1=C(C)Nc2nnnn2C1c1ccccc1OC (stereo not given)
7% | NS(=O)(=O)c1cccc(NC(=O)CSc2nnc(-c3ccccc3F)n2C2CC2)c1
0% | O=S1(=O)c2c(F)cccc2OC(COc2ccccc2)CN1CCc1ccc(F)cc1 (stereo not given)
-8% | O=C(NN=Cc1ccccc1C(=O)O)c1ccc(NS(=O)(=O)c2cccs2)cc1
8% | Cc1cn(C)c(CC(=O)NCc2ccc(Cl)cc2)c1C(=O)O
-20% | O=C(Nc1cccc([N+](=O)[O-])c1)Nc1ccc(Cl)cn1
12% | O=C(C1CCCN(c2ncccn2)C1)N1CCc2ccccc21 (stereo not given)
13% | CCCCCn1c(=O)c2c(nc3n2CCN3c2ccc(Br)cc2)n(C)c1=O
-12% | NS(=O)(=O)c1ccc(CNC(=O)C2(c3ccc(Cl)cc3)CC2)cc1
-2% | CCCN(CCC)CCCNC(=O)c1ccc2c(Cl)c3c(nc2c1)CCC3
30% | CCc1[nH]nc(C(=O)N2CCCC(Nc3ccc(C(C)C)cc3)C2)c1C (stereo not given)
-2% | Cc1cccc(NC(=O)c2sc3nc4n(c(=O)c3c2C)N=C(c2ccc(F)cc2)CS4)c1C
-27% | COc1ccc(CC(=O)N2CCN=C2SC)cc1
-8% | Cc1nc2nc(Cc3ccccc3)nn2c(C)c1Cl
7% | N#CCCn1cnc2c(=S)nc[nH]c21
5% | N#Cc1ccc(COC(=O)c2cnc(Cl)c(Cl)c2)cc1
5% | Cc1cc(C)cc(C(=O)NC(CC(N)=O)c2ccc(N3CCC(Cc4ccccc4)CC3)c([N+](=O)[O-])c2)c1 (stereo not given)
-24% | CC(C)Oc1ccc(CCc2n[nH]c(=S)n2Cc2ccccc2)cc1
1% | O=S(=O)(c1ccc(Cl)cc1)N1CCCN(c2ccc(C(F)(F)F)cn2)CC1
-7% | O=C(COC(=O)c1cnccn1)Nc1ccccc1-c1ccccc1
-15% | NC(=O)C1=C[C@H](c2ccc(C(F)(F)F)cc2)C[C@H](OCCCCO)O1
-11% | O=C(Nc1ccccc1)N1CCN(c2ncccn2)CC1
-4% | N#Cc1c(-c2cccnc2)cc(-c2ccccc2)nc1N
7% | COc1ccc(C(=O)Nc2ccc3c(c2)nc(CCNC(=O)c2ccco2)n3C)cc1
-11% | Cc1c(NC2(c3nnnn3-c3ccc(Br)cc3)CCCCC2)c(=O)n(-c2ccccc2)n1C
? | O=C(CCCSc1ccccc1)Nc1nc(-c2ccccn2)cs1
14% | NS(=O)(=O)c1cc(C(=O)OCC(=O)N2CCOCC2)ccc1Cl
-7% | O=C(O)c1cccc(NC(=O)C2CC(=O)N(Cc3ccccc3)C2)c1 (stereo not given)
21% | Cc1cc(C)c(C)c(C(=O)C2OC(=O)C(C)(C)C(=O)C2(C)C)c1C (stereo not given)
8% | COc1cccc([C@@H]2Oc3ccc(Br)cc3C(=O)[C@H]2OC(=O)Nc2cc(OC)c(OC)c(OC)c2)c1

New compounds follow.
VDR inhibitor | mol
-11% | CCc1ccc(NC(=O)N(CCN(C)C)C(C)c2cccnc2)cc1 (stereo not given)
2% | O=C(NCCc1ccc(Cl)cc1)c1ccc(CS(=O)Cc2cccc(Cl)c2)o1 (stereo not given)
7% | COC(=O)c1ccc(CSc2nc3ccc(S(N)(=O)=O)cc3[nH]2)cc1
13% | O=C1C2CCCCN2C(=O)N1CCCCN1CCN(c2cccc(Br)c2)CC1 (stereo not given)
40µM* | Cc1noc(C)c1C(=O)N1CCC[C@@]2(CCN(c3cccc(-c4ccccc4)c3)C2)C1
-8% | COc1ccc([C@@H]2CC=C(C(=O)O)CN2S(=O)(=O)c2ccc(C)cc2)cc1OC
-6% | Cc1ccc(NC(=O)C(=O)c2c[nH]c3ccccc23)cc1
-6% | COC(CNC(=O)CSCc1nc(-c2ccc(SC)cc2)oc1C)OC
-16% | O=C(CCSCc1ccccc1Cl)NCc1ccco1
17% | CCNC(=O)/N=C1/NC(=O)C(C(C)C)O1 (stereo not given)
-3%&-10% | CCOc1ccc(NS(=O)(=O)c2ccc3c(c2)CCN3C(C)=O)cc1
2% | O=C(CN1C(=O)c2ccccc2S1(=O)=O)NCCc1ccc(F)cc1
4% | CCOC(=O)c1c(C)[nH]c(C)c1S(=O)(=O)NCC1CCN(Cc2ccccc2OC)CC1
? | CSc1ccc(/C=N/NC(=O)CN2CCN(Cc3ccc(Cl)cc3)CC2)cc1
-10% | Cc1ccc([N+](=O)[O-])cc1S(=O)(=O)NCc1cccnc1
9% | Cc1occc1-c1nnc(SCC(=O)NCCc2ccccc2)o1
-10% | N#Cc1ccc(CN2CCN(C(=O)CCNS(=O)(=O)c3ccc(F)c(F)c3)CC2)cc1
15% | [O-][n+]1ccc(C(O)c2ccccc2)cc1 (stereo not given)
2% | COC(=O)c1sc2cccc(F)c2c1S(=O)(=O)NCc1ccccc1Cl
-21% | CCCC(=O)NC(C)c1nc2ccccc2n1C (stereo not given)
-15% | O=C(c1cc2sccc2n1Cc1ccc(F)cc1)N1CCc2ccccc21
-3% | O=C(Nc1cc(C(F)(F)F)ccc1Cl)C1CCN(c2nnc(-n3cccc3)s2)CC1
0% | CCN(CCn1cccn1)C(=O)c1cc(COc2ccc(F)cc2Cl)on1
-7% | CC1CC(C)CN(CCCNC(=O)c2ccc3c(SCC(=O)O)c4c(nc3c2)CCC4)C1 (stereo not given)
6% | Cc1ccc(S(=O)(=O)N(C)C)cc1NC(=S)N(CCC#N)Cc1cccnc1
3% | CN(C)CCNC(=O)Nc1cccc(Cl)c1Cl
8% | CCOCCCNC(=O)C(c1ccccc1)N(Cc1ccc2c(c1)OCO2)C(=O)c1ccc(NC(C)=O)cc1 (stereo not given)
2% | COc1ccc(Cl)cc1C(=O)N(Cc1nc(-c2cccc(C)c2)no1)C(C)C
1% | CCOc1ccccc1C1C(C(=O)Nc2ccc(OC)cc2)=C(C)Nc2nc(CCCO)nn21 (stereo not given)
-6% | CC(C)c1ccc(Nc2c(-c3ccccn3)nc3ccccn23)cc1

(list continues)
VDR inhibitor | mol
-17% | COC(=O)c1cc(S(=O)(=O)NCc2ccccc2)cn1C
10% | COc1ccc(C)cc1-n1nc2ccccc2n1
2% | COCCN(CCOC)Cc1cc(=O)oc2cc3c(cc12)CCC3
-9% | CCOC(=O)c1sc(NC(=O)c2cc(-c3ccc(F)cc3)on2)c(C(=O)OCC)c1C
11% | COc1cccc(/C=C/C(=O)Nc2ccc(OC)nc2)c1

Sorted by length of the SMILES (highest first): part of the list above
VDR inhibitor | mol
8% | CCOCCCNC(=O)C(c1ccccc1)N(Cc1ccc2c(c1)OCO2)C(=O)c1ccc(NC(C)=O)cc1 (stereo not given)
-10% | N#Cc1ccc(CN2CCN(C(=O)CCNS(=O)(=O)c3ccc(F)c(F)c3)CC2)cc1
1% | CCOc1ccccc1C1C(C(=O)Nc2ccc(OC)cc2)=C(C)Nc2nc(CCCO)nn21 (stereo not given)
-3% | O=C(Nc1cc(C(F)(F)F)ccc1Cl)C1CCN(c2nnc(-n3cccc3)s2)CC1
2% | COc1ccc(Cl)cc1C(=O)N(Cc1nc(-c2cccc(C)c2)no1)C(C)C
6% | Cc1ccc(S(=O)(=O)N(C)C)cc1NC(=S)N(CCC#N)Cc1cccnc1
2% | COC(=O)c1sc2cccc(F)c2c1S(=O)(=O)NCc1ccccc1Cl
0% | CCN(CCn1cccn1)C(=O)c1cc(COc2ccc(F)cc2Cl)on1
-15% | O=C(c1cc2sccc2n1Cc1ccc(F)cc1)N1CCc2ccccc21
-6% | CC(C)c1ccc(Nc2c(-c3ccccn3)nc3ccccn23)cc1
2% | COCCN(CCOC)Cc1cc(=O)oc2cc3c(cc12)CCC3
-17% | COC(=O)c1cc(S(=O)(=O)NCc2ccccc2)cn1C
11% | COc1cccc(/C=C/C(=O)Nc2ccc(OC)nc2)c1
15% | [O-][n+]1ccc(C(O)c2ccccc2)cc1 (stereo not given)
3% | CN(C)CCNC(=O)Nc1cccc(Cl)c1Cl
-21% | CCCC(=O)NC(C)c1nc2ccccc2n1C (stereo not given)

Screening data from PubChem BioAssay.

These rows are one share of the data; the hit share may differ from the screen's.
